HPGD block = HPGD (human) dehydrogenase inhibition; P15428; purified HPGD, NADH fluorescence kinetic, PGE2 substrate; Potency, µM, inactives show at the top dose activity change, negative = inhibition, most hits filed as inhibitors; 4.3% of 150,000 active; active = well fitted inhibition curve with a large enough effect (not every such curve was filed as active); inconclusive = small, poorly fitted or top-dose-only effect, or another doubt; inactive = no such curve, though single readings can be large or run the other way;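 note: top concentration of the series not given in the record; plate controls included wells without enzyme; inactives centre near -10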
Target sequence (P15428 whole entry, looked up): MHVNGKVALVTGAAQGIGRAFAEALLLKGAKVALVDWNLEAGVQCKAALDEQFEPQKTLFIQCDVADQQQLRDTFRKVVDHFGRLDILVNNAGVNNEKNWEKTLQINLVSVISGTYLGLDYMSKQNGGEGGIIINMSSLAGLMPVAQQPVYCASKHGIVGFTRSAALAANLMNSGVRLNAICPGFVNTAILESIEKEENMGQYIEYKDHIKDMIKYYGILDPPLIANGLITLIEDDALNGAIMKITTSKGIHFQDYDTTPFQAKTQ
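20 nM HPGD preincubated 15 min at room temperature with compound in 50 mM Tris-HCl pH 8, 0.01% Tween 20. Started with 1 mM NAD+ and 30 uM prostaglandin E2; NADH fluorescence (360/450 nm) read 5 times over 30-s intervals, last minus first.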
Active calls of the source: *; & = joins results of further samples. % is set by controls: 0 for no effect and ±100 for the full control effect; potency is the fitted concentration of half-maximal effect. A portion of the library (hit frequency here may not be typical).

Screening COCCn1c(=NC(=O)c2ccc3c(c2)OCO3)c(C#N)cc2c(=O)n3cccc(C)c3nc21 returned HPGD block -12%.
N#C/C(=C1\CCCN1)c1nc2ccccc2c(=O)[nH]1 was read as HPGD block -27%.
Screening N#C/C(=C/c1ccc(CNS(=O)(=O)c2ccccc2)o1)C(=O)NCc1ccccc1 returned HPGD block -21%.
O=C(CC1N=C2c3ccccc3N=C(SCc3ccc(Cl)cc3)N2C1=O)NCc1ccco1 (configuration not stated) was read as HPGD block inconclusive.
Screening COc1ccc(S(=O)(=O)N(C)CC(=O)NCCC2=CCCCC2)cc1OC returned HPGD block -8%.
Screening CN1CCN(S(=O)(=O)c2ccc(-c3noc(C4CCN(S(C)(=O)=O)CC4)n3)cc2)CC1 returned HPGD block 1%.
`C=C(C)CSc1nnc(-c2cccc(S(=O)(=O)N(C)C)c2)n1-c1cc(OC)ccc1OC` gave HPGD block inconclusive.
`O=c1oc2ccc3ccccc3c2cc1-c1nnc(-c2ccccc2)o1` gave HPGD block inconclusive.
CCOc1ccc(N(CC(=O)Nc2cccc(F)c2)S(=O)(=O)c2c(C)noc2C)cc1 was read as HPGD block -3%.
Screening CC(C)NC(=O)CSc1nc(-c2cccs2)cc(-c2ccccc2)c1C#N returned HPGD block inconclusive.
For O=C(O)CCN(CCC(=O)O)c1ccccc1 the results were HPGD block -6%.
For COCCCn1c(-c2ccc(Cl)cc2)n[nH]c1=S the results were HPGD block -13%.
Screening Cc1ccc(C(=O)N2CCN(S(C)(=O)=O)C2)cc1 returned HPGD block -4%.
C=CCn1c(-c2ccc(Cl)cc2)c[nH]c1=S was read as HPGD block 11µM*.
For Cc1ccc(C)c(C(=O)COC(=O)c2cc(Cl)nc3ccccc23)c1 the results were HPGD block -11%.
Screening COc1cccc(OCCNc2cc(N3CCOCC3)ccc2[N+](=O)[O-])c1 returned HPGD block -10%.
Nc1nc(NCc2ccco2)nn1-c1ccccc1 was read as HPGD block -8%.
NCCCCCC(=O)O was read as HPGD block -31%&-11%&-3%.
`O=C(CNS(=O)(=O)c1ccc(Br)cc1)N1CCN(c2ccc(F)cc2)CC1` gave HPGD block -9%.
COc1ccc(NC(=O)Cn2nnc(C(=O)NCc3ccco3)c2N)c(OC)c1 was read as HPGD block -2%.

13 successive entries already listed, quoted:
Screening N#C/C(=C/c1ccc(CNS(=O)(=O)c2ccccc2)o1)C(=O)NCc1ccccc1 returned HPGD block -21%.
O=C(CC1N=C2c3ccccc3N=C(SCc3ccc(Cl)cc3)N2C1=O)NCc1ccco1 (configuration not stated) was read as HPGD block inconclusive.
Screening COc1ccc(S(=O)(=O)N(C)CC(=O)NCCC2=CCCCC2)cc1OC returned HPGD block -8%.
Screening CN1CCN(S(=O)(=O)c2ccc(-c3noc(C4CCN(S(C)(=O)=O)CC4)n3)cc2)CC1 returned HPGD block 1%.
`C=C(C)CSc1nnc(-c2cccc(S(=O)(=O)N(C)C)c2)n1-c1cc(OC)ccc1OC` gave HPGD block inconclusive.
`O=c1oc2ccc3ccccc3c2cc1-c1nnc(-c2ccccc2)o1` gave HPGD block inconclusive.
CCOc1ccc(N(CC(=O)Nc2cccc(F)c2)S(=O)(=O)c2c(C)noc2C)cc1 was read as HPGD block -3%.
Screening CC(C)NC(=O)CSc1nc(-c2cccs2)cc(-c2ccccc2)c1C#N returned HPGD block inconclusive.
For O=C(O)CCN(CCC(=O)O)c1ccccc1 the results were HPGD block -6%.
For COCCCn1c(-c2ccc(Cl)cc2)n[nH]c1=S the results were HPGD block -13%.
Screening Cc1ccc(C(=O)N2CCN(S(C)(=O)=O)C2)cc1 returned HPGD block -4%.
C=CCn1c(-c2ccc(Cl)cc2)c[nH]c1=S was read as HPGD block 11µM*.
For Cc1ccc(C)c(C(=O)COC(=O)c2cc(Cl)nc3ccccc23)c1 the results were HPGD block -11%.

(next part)
CCCc1nc2ccc(NC(=O)NCCC(=O)OCC)cc2c(=O)n1Cc1ccc(Cl)cc1 was read as HPGD block -14%.
CCOC(=O)C1CCN(c2nc3ccccc3nc2C(C#N)C(=O)OCCOC)CC1 (configuration not stated) was read as HPGD block -16%.
CCOC(=O)CCCCNCc1ccccc1 was read as HPGD block -9%.
CCOc1cc(C)nc(N2CCCC(C(=O)NCc3ccccc3F)C2)n1 (configuration not stated) was read as HPGD block -14%.
CCOC(=O)C(NC(C)=O)(Nc1cccc(F)c1)C(F)(F)F (configuration not stated) was read as HPGD block 3%.
Screening N#Cc1ccc(-c2cccnc2)nc1SCc1ccc(Cl)cc1Cl returned HPGD block -15%.
Screening CCN(c1ccc(NC(=O)CN2C(=O)NC3(CCOc4ccccc43)C2=O)cc1)C(C)C (configuration not stated) returned HPGD block -21%.
`Cn1cccc1Cc1nnc(SCC(=O)NCc2ccc3c(c2)OCO3)n1CCc1ccccc1` gave HPGD block 1%.
Cc1ccc(NC(=S)NN2CCN(C)CC2)cc1 was read as HPGD block -2%.
`O=C(Oc1ccc(C(=S)N2CCOCC2)cc1)c1ccc(Br)cc1` gave HPGD block -7%.
`CCOC(=O)CSc1nnc(-c2nnc(SCC(=O)OCC)n2CC)n1CC` gave HPGD block -8%.
For Cc1cc(C)n2c(Br)c(CSc3nc4ccccc4s3)nc2n1 the results were HPGD block -28%.
Screening COc1ccc(C(C2C(=O)CC(C)(C)CC2=O)C2C(=O)CC(C)(C)CC2=O)cc1COCC(F)(F)F returned HPGD block -23%.
Cc1cc(C)n2nc(-c3cnn(C)c3C(F)(F)F)cc2n1 was read as HPGD block -20%.
`CCCNC(=O)OCCC12CC3CC(CC(C3)C1)C2` gave HPGD block -11%.
For O=[n+]1cc(-c2ccc(Br)cc2)n([O-])c2c1CCC2 the results were HPGD block -4%.
Cn1c(N/N=C2\CCCc3ccccc32)nc2c1c(=O)n(Cc1ccccc1)c(=O)n2C was read as HPGD block inconclusive.
O=C(OCCCN=C1NS(=O)(=O)c2ccccc21)C1CC(=O)N(c2ccc(Cl)cc2)C1 (configuration not stated) was read as HPGD block -25%.
Screening Cc1cc(C)c(C#N)c(SCCS(=O)(=O)Cc2ccc(Cl)cc2)n1 returned HPGD block -17%.
For O=C(Nc1ccc(N2CCOCC2)cc1)Nc1cnsn1 the results were HPGD block -23%.
`CCOC(=O)c1c(-c2ccccc2)csc1NC(=O)c1ccc(S(=O)(=O)N2CCOCC2)cc1` gave HPGD block inconclusive.
Screening Cc1noc(C)c1-c1cc(NCc2ccccc2)ncn1 returned HPGD block -18%.
COc1ccccc1C(=O)OCC(=O)Nc1ccc(OC(F)F)cc1 was read as HPGD block -7%.
`O=C(CSc1nnc(Cc2cccs2)n1-c1ccccc1)Nc1ccc2c(c1)OCCO2` gave HPGD block -10%.
Cc1ccc(S(=O)(=O)Nc2ccccc2CNc2cccc(C)n2)cc1 was read as HPGD block -13%.
`COc1ccc(-c2cnnc(N/N=C/c3ccc(OC)c(OC)c3)n2)cc1` gave HPGD block -25%.
Oc1ccccc1C1OCC2(CO1)COC(c1ccccc1O)OC2 (configuration not stated) was read as HPGD block -11%.
Screening CCCS(=O)(=O)N1CCC(C(=O)NCCc2ccccc2)CC1 returned HPGD block 10%.
`CCOC(=O)c1c(C)[nH]c(C(=O)COC(=O)C2CC2C)c1C` (configuration not stated) gave HPGD block 0%.
O=C(NCCN1CCN(c2ccccc2)CC1)C1CCN(S(=O)(=O)c2cccs2)CC1 was read as HPGD block -2%.
CCN1C(=O)S/C(=C/c2cn(C)c3ccccc23)C1=O was read as HPGD block inconclusive.
`Cc1nn2c(-c3ccccc3)ccnc2c1-c1ccccc1` gave HPGD block -6%.
Screening CCN(CC)S(=O)(=O)c1cccc(C(=O)NC(C(=O)Nc2nnc(C3CC3)s2)C(C)C)c1 (configuration not stated) returned HPGD block -11%.
`O=C(CN(Cc1ccccc1)S(=O)(=O)c1ccc(Br)cc1)NCc1ccco1` gave HPGD block -19%.
For O=C(COC(=O)c1cc([N+](=O)[O-])ccc1NCCO)c1ccc(Cl)cc1 the results were HPGD block -17%.
COc1cc(NC(=O)Cn2ncc3c2-c2ccccc2OC3)cc(OC)c1OC was read as HPGD block -15%.
Cn1cccc1C(=O)N1CCC2(CC1)CN(c1ccccn1)C2 was read as HPGD block inconclusive.
Screening O=C(Cn1cnc2c(nnn2-c2ccc(F)cc2)c1=O)N1CCCC1 returned HPGD block -16%.
`COc1ccc(C2CC(c3ccccc3)n3nc(NC(=O)c4cccs4)nc3N2)cc1` (configuration not stated) gave HPGD block -11%.
For O=C(O)c1ccc(NCc2ccncc2)cc1 the results were HPGD block -10%.
Screening C#CCOc1c(Br)cc(/C=N/O)cc1OCC returned HPGD block -29%.
CCOC(=O)C1CCN(C(=O)Nc2ccc(NC(=O)C3CCN(C(=O)OCC)CC3)cc2)CC1 was read as HPGD block -5%.
For CC(NC(=O)c1ccc(CS(=O)(=O)c2cccc(C(F)(F)F)c2)o1)c1ccc2c(c1)OCCO2 (configuration not stated) the results were HPGD block -2%.
Screening O=[N+]([O-])c1ccc(/C=N/n2c(C3CCCCC3)n[nH]c2=S)cc1 returned HPGD block 4.5µM*.
Screening CCCOC(=O)c1ccc(NC(=O)CSC2=Nc3ccccc3C3CC=NN23)cc1 (configuration not stated) returned HPGD block inconclusive.
For CC(C)(C)c1nc(SCC(=O)Nc2nc3c(s2)CCCC3)c2ccccc2n1 the results were HPGD block -8%.
Screening O=C(Nc1ccn(C2CC(OC(=O)c3ccccc3)C(CO)O2)c(=O)n1)c1ccccc1 (configuration not stated) returned HPGD block -17%.
N#CC1=C(N)N(c2ccccc2C#N)C2=C(C(=O)CCC2)C1c1ccsc1 (configuration not stated) was read as HPGD block -29%.
COC(=O)c1[nH]cnc1C(=O)c1ccccc1 was read as HPGD block -10%.
CN(CCO)C1=CC(=O)CC(C)(C)C1 was read as HPGD block 0%.
COc1ccc2c(c1)O[C@H](c1ccc3c(c1)OCO3)[C@@H](OC(=O)NS(=O)(=O)c1ccc(C)cc1)C2=O was read as HPGD block -2%.
Cc1ccc(-c2ccccc2NC(=O)CCl)o1 was read as HPGD block -14%.
For CC(C)(C)c1ccc(OCC(=O)NCCN2CCCC2)cc1 the results were HPGD block -3%.
`N[C@@H](C(=O)O)c1cc(O)ccc1Cl` gave HPGD block -28%.
Screening CCOC(=O)C(=O)NNc1cccc(C)c1C returned HPGD block -4%.
`CC1(C)S[C@@H]2[C@H](NC(=O)C(C(=O)O)c3ccccc3)C(=O)N2[C@H]1C(=O)O` (some centres not stated) gave HPGD block -20%.
For CCCCn1c(SCC(=O)N2c3ccccc3CCc3ccccc32)nc2c1c(=O)n(C)c(=O)n2C the results were HPGD block -8%.
Screening O=C(NCc1ccc2c(c1)OCO2)c1nnc(Cc2ccc(Cl)cc2)o1 returned HPGD block -1%.
Screening CCOC(=O)/C=C/C(=O)OCC(=O)NC(c1ccccc1)c1ccccc1 returned HPGD block -30%.
For COC(=O)C1CCCN1C(=O)COc1ccc(Br)cc1Cl (configuration not stated) the results were HPGD block -6%.
CNC(=S)NC1CC2CCCC(C1)N2Cc1ccco1 (configuration not stated) was read as HPGD block -7%.
CCC(C)OC(=O)C(C)Oc1ccc(-c2ccccc2)cc1 (configuration not stated) was read as HPGD block -15%.
For COc1ccc2nc(NC(=O)c3ccc(-n4nc(C)cc4C)cc3)sc2c1 the results were HPGD block inconclusive.
Screening O=C(NCCCNC(=O)c1cccs1)c1cccs1 returned HPGD block -8%.
`CCOC(=O)Cn1c(=O)oc2cc(S(=O)(=O)NC(C)c3ccccc3)ccc21` (configuration not stated) gave HPGD block -23%.
Screening COCCCNC(=S)NNC(=O)c1cccnc1 returned HPGD block -18%.
For N#Cc1cccc(Oc2ccc(-c3cnc4ccccc4n3)cc2)c1C#N the results were HPGD block -20%.
`Cc1nnc(SCCn2c(N3CCCCC3)nc3c2c(=O)[nH]c(=O)n3C)s1` gave HPGD block -3%.
`COC(=O)C1=C(C)OC(N)=C(C#N)C1c1c(C)nn(C)c1C` (configuration not stated) gave HPGD block inconclusive.
For COc1ccc(CCC(C)Nc2cccc(C)c2)cc1 (configuration not stated) the results were HPGD block 0%.
Screening CCC(C)C(=O)Nc1ccc(OC)cc1OC (configuration not stated) returned HPGD block 0%.
`COC(=O)c1c(-c2ccc(Br)cc2)noc1N` gave HPGD block -15%.
For O=C(O)CCSCc1ccc(I)cc1 the results were HPGD block -6%.
O=C(CN1C(=O)C2C3C=CC(C3)C2C1=O)NC1CCCc2ccccc21 (configuration not stated) was read as HPGD block -21%.
For COC(=O)C1=C(C(=O)OC)[C@@H]2N(C)c3ccccc3[C@@]23C[C@@H](C(=O)OC)N(C(=O)c2cccs2)C3=N1 the results were HPGD block -5%.
COC(=O)[C@@H]1[C@@H](C#N)C2(c3ccccc3-c3ccccc32)N(c2ccc(Cl)cc2)N1C#N was read as HPGD block inconclusive.
Screening NC(=O)c1cccc2c3c([nH]c12)CCCC3 returned HPGD block -1%.
Screening CCOC(=O)c1cnn(-c2ccccc2)c1-n1cccc1C(=O)C(=O)Nc1ccccc1 returned HPGD block -18%.
`COc1ccc(C(CCNC(C)c2ccccc2)c2ccc(F)cc2)cc1` (configuration not stated) gave HPGD block -10%.
`Cc1cccc(NC(=O)CN(c2ccc(C(C)C)cc2)S(=O)(=O)c2c(C)nn(C)c2C)n1` gave HPGD block -1%.
`CC1(C)CC(=O)C2=C(C1)Nc1ccccc1NC2c1ccccn1` (configuration not stated) gave HPGD block -24%.
Screening CCCC1(C(=O)OCC)NC(c2ccc(N(C)C)cc2)C2C(=O)N(c3ccc(F)cc3)C(=O)C21 (configuration not stated) returned HPGD block -9%.
`CCOC(=O)C1CCCN(C(=O)c2cc3ncc(Br)cn3n2)C1` (configuration not stated) gave HPGD block -29%.
Screening CC(C)OC(=O)C(NC(=O)c1ccccc1)=C1CCCCC1 returned HPGD block 3%.

Screens (PubChem BioAssay)
